gsp agonist = agonists of gsp mutant (McCune-Albright syndrome); gsp mutant cells, cAMP HTRF, 30 min; control for the full effect not named in the record; Potency, µM (highest dose often 76.9 µM), inactives show at the highest dose activation (cAMP increase), most hits filed as activators; 340,000 tested, 0.13% active; active = well fitted activation curve with a large enough effect; inconclusive = small, poorly fitted or top-dose-only effect, or another doubt; inactive = no such curve, though single readings can be large or run the other way; cell line not stated here;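 further: phosphodiesterase inhibitor Ro 20-1724 added with compounds to block cAMP breakdown; potency means the concentration at half of the fitted maximal effect; nearly all actives have a fitted effect of over 60% in size; about a fifth of the inactives were tested at one dose only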
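Cells stably selected in G418 were plated at 2000/well, grown 16-24 hr, then given compounds in DMSO with the PDE inhibitor […] (300 uM solution added) for 30 min at 37C; cAMP was read by HTRF.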
gsp antag = gsp mutant antagonism; 340,000 tested, 0.4% active; Potency, µM (titrated, usually from 76.9 µM), for the others: top-dose activity change, negative = inhibition, usual class: inhibitors; gsp-mutant cells, cAMP HTRF, 30 min; control for the full effect not named in the record; active = falling curve of any shape with a large fitted effect; inconclusive = falling curve, mostly with a smaller effect; inactive = flat or rising curve; cell line not stated here;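 further: intracellular cAMP measured with PDE inhibitor Ro 20-1724 present during compound exposure; potency means the concentration at half of the fitted maximal effect; on the % scale 0 is the no-effect control and ±100 the full control effect; nearly all actives have a fitted effect of over 65% in size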
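HTRF cAMP measurement after 30 min RT detection following 30 min, 37C compound treatment alongside […] (added as 300 uM solution) in G418-selected cells seeded at 2000/well and grown 16–24 h.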
D2 PAM = potentiates the human D2 dopamine receptor allosterically; AID 624464; P14416; DiscoveRx D2 beta-arrestin cells, luminescence, 90 min; 100% = 57 uM dopamine signal; 360,000 tested, 0.23% active; potentiation, % (concentration not given with the values); active = potentiation of 50% or more; inconclusive = 30% to 50%; inactive = 30% or less;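 further: compound concentration not given in the record; tested on top of an EC20 dose of dopamine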
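D2 cells co-treated with compound plus 50 nM dopamine (EC20) for 90 min at 37 deg C to detect potentiation. Beta-arrestin recruitment was read as enzyme-fragment luminescence after 1 h at ambient temperature. Full response was set by 57 uM dopamine.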
CtBP-E1A blk = inhibitors of CtBP/E1A interaction; AlphaScreen GST-E1A/His-CtBP binding, 1536-well; stronger effect = lower value; control for the full effect not named in the record; activity change, % (no concentration beside the values); 340,000 tested, 0.49% active; in the data active means activity change below about -65%; inconclusive means about -30% to -65%; inactive means above about -30%; further: on the % scale 0 is the no-effect control and ±100 the full control effect; compound concentration not given in the record
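In 5 uL wells, 23 nL compound meets equimolar GST-E1A and His-CtBP (5X stock 125 nM each) for 2 h, 37 °C. Beads (5X, 50 ug/mL) then 1 h, 37 °C, dark.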
Six1-Eya2 blk = inhibitors of human Six1/Eya2 interaction | 360,000 tested, 0.56% active | AlphaScreen GST-Six1/His-Eya2 binding, biochemical; stronger effect = lower value; control for the full effect not named in the record | AID 651725 | Q15475+O00167 | activity change, % (no concentration beside the values); in the data active = activity change below about -65%; inconclusive = about -30% to -65%; inactive = above about -30%; further: on the % scale 0 is the no-effect control and ±100 the full control effect; compound concentration not given in the record
Target sequence (O00167 whole entry, looked up): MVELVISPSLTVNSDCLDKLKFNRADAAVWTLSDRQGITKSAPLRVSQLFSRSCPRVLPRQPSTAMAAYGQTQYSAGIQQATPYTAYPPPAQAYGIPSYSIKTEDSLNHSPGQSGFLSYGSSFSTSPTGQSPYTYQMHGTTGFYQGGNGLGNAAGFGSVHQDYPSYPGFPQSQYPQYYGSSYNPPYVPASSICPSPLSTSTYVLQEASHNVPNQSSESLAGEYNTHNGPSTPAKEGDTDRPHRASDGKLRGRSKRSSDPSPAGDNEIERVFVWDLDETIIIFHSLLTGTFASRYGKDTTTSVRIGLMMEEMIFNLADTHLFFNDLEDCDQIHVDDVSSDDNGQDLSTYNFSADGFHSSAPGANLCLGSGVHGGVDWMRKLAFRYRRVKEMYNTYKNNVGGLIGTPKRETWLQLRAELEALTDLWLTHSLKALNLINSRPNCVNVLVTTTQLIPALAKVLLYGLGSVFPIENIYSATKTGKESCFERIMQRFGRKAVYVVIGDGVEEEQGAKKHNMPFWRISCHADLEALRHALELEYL
Target sequence (Q15475 whole entry, looked up): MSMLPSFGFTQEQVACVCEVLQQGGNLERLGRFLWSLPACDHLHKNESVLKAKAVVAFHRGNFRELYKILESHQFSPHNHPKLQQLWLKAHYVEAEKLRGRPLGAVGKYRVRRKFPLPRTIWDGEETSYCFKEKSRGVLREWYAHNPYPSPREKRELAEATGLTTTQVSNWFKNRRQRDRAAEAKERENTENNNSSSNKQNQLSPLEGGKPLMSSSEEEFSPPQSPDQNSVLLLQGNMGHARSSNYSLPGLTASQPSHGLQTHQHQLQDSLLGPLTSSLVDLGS
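Compounds are tested against tagged Six1 and Eya2 proteins bridged by glutathione donor and nickel acceptor beads; after a one-hour incubation at 37 °C without light, AlphaScreen emission is recorded.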
D2 agonist = activates the human D2 dopamine receptor. DiscoveRx PathHunter D2 beta-arrestin, luminescence, 90 min; 100% = 57 uM dopamine signal. activation, % (concentration not given with the values). 360,000 tested, 0.084% active. AID 624465; in the data active = activation above about 40%; inconclusive = about 15% to 40%; inactive = below about 15%; further: compound concentration not given in the record; the text of the record calls up to 30% inactive
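DiscoveRx PathHunter D2 beta-arrestin cells (2,100/well) attached overnight, then compound-stimulated 90 min at 37 C in HBSS/10 mM HEPES/0.1% Tween-20 buffer; beta-galactosidase complementation read by luminescence after 1 h at ambient temperature. Dopamine 57 uM final (EC100) as control.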
Starred values were filed as active, the others as inactive; u = inconclusive; x = no result given; [ ] = remark or other dose.

SMILES	gsp agonist	gsp antag	D2 PAM	CtBP-E1A blk	Six1-Eya2 blk	D2 agonist
COC(=O)C1=C(C(=O)OC)[C@@H]2N(C)c3ccc(OC)cc3[C@@]23C[C@@H](C(=O)OC)N(S(=O)(=O)c2ccc(OC)cc2)C3=N1	x	-8%	-6	-28	-24	-5.3
CCc1ccc(N2CC(C(=O)N3CCN(c4ccccn4)CC3)CC2=O)cc1 (stereo not drawn)	-35%[inhibitor]	5%	-7	-5	6	2.0
COc1ccc(NC(=S)NC2CCCCCC2)c(OC)c1	5%	3%	-32	-10	-4	-4.7
Cc1nn(CC(=O)N2CCCC2)c(=O)c2nn(-c3ccccc3)c(C)c12	u	8%	-7	1	5	-2.7
CCOC(=O)/C(=N\Nc1ccccc1)c1csc(Nc2ccc(C)cc2)n1	17%	6%	-14	7	-15	-3.0
COc1ccc(Cc2c(-c3cccc(Br)c3)nc3ccc(Cl)cn23)c(C)c1	x	x	2	4	3	2.4
COc1ccc(-c2ncc(CN3CCN(CCC(C)C)C(CCO)C3)cn2)cc1 (stereo not drawn)	-8%	4%	-7	-1	-4	2.8
CCN1C(=O)N(C(C)=O)C2C1N(C(C)=O)C(=O)N2C(C)=O (stereo not drawn)	u	4%	-9	7	6	-1.7
CCC1CN(C(=O)N2CCC(C(=O)Nc3ccccc3F)CC2)c2ccccc2O1 (stereo not drawn)	28%	-2%	-4	-13	-3	3.0
CCOc1ccc2nc(SCC(=O)N3CCCc4ccccc43)sc2c1	4%	-12%	-4	11	5	2.6
Cc1c(CCC(=O)NCCCCCC(=O)O)c(=O)oc2cc3occ(-c4ccccc4)c3cc12	14%	u	-2	x	-68*	-4.6
COc1ccccc1CC(=O)N(Cc1ccccc1)c1ccc(C)cc1	-8%	-25%	-4	0	0	-2.1
O=C(NCc1ccccc1)C(=O)NCC1OCCN1C(=O)c1cccs1 (stereo not drawn)	-75%[inhibitor]	6%	-13	1	4	-0.2
CCCCn1c(=N)n(CC(=O)c2ccc(Br)s2)c2ccccc21	22%	11%	-21	0	1	-11
CC(C)C(C)(C#N)NC(=O)CSc1nnc(-c2ccncc2)n1Cc1ccccc1 (stereo not drawn)	-4%	12%	3	-4	-19	-1.3
COc1ccc(/C=N/n2cnc3c([nH]c4ccc(C)cc43)c2=O)cc1CN1CCCC1	20%	4%	-15	x	-10	-6.0
Cc1nc(N)sc1-c1csc(Nc2cccc(C(=O)O)c2)n1	-7%	-1%	-17	x	-19	-3.8
C=CCNC(=O)c1onc(CSc2ccccc2)c1C(=O)NCC=C	x	-4%	-17	-3	7	0.4
O=C(CN1CCCCCC1)Nc1ccc(F)c(F)c1	-2%	4%	-16	4	0	-1.5
Cc1ccc(S(=O)(=O)N2CCCCC2)cc1NC(=O)COC(=O)C1(C)CC1(Cl)Cl (stereo not drawn)	6%	-15%	2	6	3	8.7
CCOC(=O)CCSc1nc(N2CCOCC2)c2c(c1C#N)CC(C)(C)OC2	-1%	2%	-1	10	1	0.1
Cc1c(NC(=O)c2ccc(S(=O)(=O)N(C)C)cc2)cccc1-n1cnnn1	-31%	0%	4	x	-2	-1.2
COc1ccc(S(N)(=O)=O)cc1C(=O)NC1CCCc2ccccc21 (stereo not drawn)	-33%[15.4 µM]	0%	-2	1	-6	-2.5
O=C(Cc1ccccc1[N+](=O)[O-])NCCCN1CCOCC1	-4%[15.4 µM]	16%	-6	9	-9	-3.0
CSc1ccc(C#N)cc1NC(=O)c1ccc(Cl)cc1	6%	9%	-7	5	-3	-3.4
COc1ccc(N2C(=O)CC(Sc3ncn[nH]3)C2=O)c(OC)c1 (stereo not drawn)	9%	-6%	-4	3	3	3.7
Cc1[nH]c2ccccc2c1C(=O)C(C)OC(=O)c1ccccc1NCCO (stereo not drawn)	6%	-12%	1	6	2	3.8
O=C(Nc1ccccn1)C(F)(F)C(F)(F)C(F)(F)C(F)(F)C(=O)Nc1ccccn1	-39%[inhibitor]	u	-12	0	3	-3.1
Cc1c(C(=O)Nc2ccc(Oc3ccccc3)cc2)sc2nc3n(c(=O)c12)CCC3	-57%[inhibitor]	u	12	-18	u	3.6
COc1ccc(CCNC(=O)CSCC(=O)Nc2ccccc2)cc1OC	-6%[15.4 µM]	-2%	-11	-15	-9	-4.6
CN(C)S(=O)(=O)c1cc(C(=O)NCCCn2ccc3ccccc32)ccc1Cl	27%	-11%	-3	-19	-6	3.8
Nc1cc(=O)[nH]c(=O)n1-c1ccc(Cl)cc1	4%[15.4 µM]	-6%	-4	1	-3	1.2
C[N+]1(CC(=O)OC2CCCCCCCCCCC2)CCCC1	-5%[15.4 µM]	x	3	-14	2	-0.7
Nc1ccn([C@@H]2O[C@H](C(=O)N(CCC3=CCCCC3)CC3CC3)[C@@H](O)[C@H]2O)c(=O)n1	x	x	-2	10	6	-0.9
COc1ccc(-c2noc(CN(C)S(=O)(=O)c3ccccc3)n2)cc1OC	-15%	2%	0	0	4	0.7
COc1ccccc1/C=C(/C(=O)OCC(=O)NCc1ccccc1)c1ccccc1	26%	-6%	-9	1	-6	0.9
Cc1ccc(C)c(NC(=O)CN(C)C(=O)c2cc([N+](=O)[O-])ccc2N2CCOCC2)c1	10%	1%	-9	0	-6	-4.3
O=S(=O)(c1cccs1)N1CCN(Cc2nc3ccccc3s2)CC1	19%	u	5	0	-3	-0.9
O=C(CS(=O)CC(=O)N(c1cccc(F)c1)C(C(=O)NC1CCCCC1)c1ccco1)Nc1ccc(F)cc1 (stereo not drawn)	-6%	-9%	-8	-13	0	-2.3
NC(=O)COC(=O)CNC(=O)c1cc(Cl)cc([N+](=O)[O-])c1	3%	5%	1	-1	4	3.5
Nc1ccccc1N1CCOCC1	1%	1%	-4	-4	-3	-0.3
COc1ccc(NC(=O)CCNS(=O)(=O)c2cc(Br)ccc2Br)cc1S(N)(=O)=O	6%[15.4 µM]	4%	-1	2	5	-4.0
O=C(Nc1ccccn1)c1ccc(Cl)c(S(=O)(=O)N2CCCC2)c1	15%[15.4 µM]	-12%	-3	-2	3	2.1
Cc1cccc(NS(=O)(=O)c2ccc(C(=O)NCC(c3ccco3)N(C)C)cc2)c1C (stereo not drawn)	4%[15.4 µM]	4%	-26	-18	3	-0.6
CCOc1ccc2c(c1)C(c1ccc(C)o1)=NNC(c1ccncc1)=N2	18%	-5%	-3	-4	-15	0.3
C/C(=N\NC(=O)c1ccc(Br)cc1)c1cccnc1	u	1%	-31	3	-1	0.3
CCCS(=O)(=O)NC(=O)C1(C)CCCN(C(=O)c2nc3ccccc3s2)C1 (stereo not drawn)	x	x	-1	2	1	-4.2
C=CC(=O)NC(C)(C)CCN1CCOCC1	-8%[15.4 µM]	10%	-8	-2	2	-4.7

An excerpt from above in order of heavy-atom count, lowest first:
SMILES	gsp agonist	gsp antag	D2 PAM	CtBP-E1A blk	Six1-Eya2 blk	D2 agonist
CCOc1ccc2c(c1)C(c1ccc(C)o1)=NNC(c1ccncc1)=N2	18%	-5%	-3	-4	-15	0.3
COc1ccc(NC(=O)CCNS(=O)(=O)c2cc(Br)ccc2Br)cc1S(N)(=O)=O	6%[15.4 µM]	4%	-1	2	5	-4.0
O=C(CS(=O)CC(=O)N(c1cccc(F)c1)C(C(=O)NC1CCCCC1)c1ccco1)Nc1ccc(F)cc1 (stereo not drawn)	-6%	-9%	-8	-13	0	-2.3

Next results follow:
SMILES	gsp agonist	gsp antag	D2 PAM	CtBP-E1A blk	Six1-Eya2 blk	D2 agonist
COCCCNC(=O)CC1C[C@H](C(=O)N2CCCCC2)[C@@]2(C)c3[nH]c4ccc(OC)cc4c3CCN2C1=O (stereo partly drawn)	x	7%	-6	-15	9	-2.4
Cn1cccc1C(=O)NC(=O)COC(=O)c1ccccc1O	6%	-3%	-24	1	-14	0.6
CCCOc1ccc(/C=C/C(=O)OCC(=O)N(C)c2c(N)n(Cc3ccccc3)c(=O)[nH]c2=O)cc1OCC	12%	-6%	-8	21	-3	-8.5
COc1cccc(-c2nnc(NC(=O)c3ccco3)s2)c1	28%	-5%	-6	x	6	-0.9
CCCCC(=O)NC(=S)NNS(=O)(=O)c1ccccc1	-8%	9%	-11	-2	-3	-0.6
O=C(Nc1cccnc1)c1c(F)c(F)c(F)c(F)c1F	15%	-12%	-9	-3	-2	-0.2
CC1(C)Oc2ccc(C(=O)N/N=C/c3ccc(O)cc3)cc2NC1=O	-18%	0%	7	-16	-18	-1.8
CN(CCCC1CCCC1)C(=O)CC1C(=O)NCCN1Cc1ccc(F)cc1 (stereo not drawn)	4%	6%	-6	-7	-3	-5.7
Nc1ncnc2nc(SCCC(=O)O)[nH]c12	u	8%	1	7	1	1.7
N#Cc1c(-c2ccccc2)c(-c2ccccc2)nn(CC(=O)NNC(=O)Nc2ccc(Cl)cc2)c1=O	1%[15.4 µM]	8%	-2	-12	-16	1.2
O=C(Nc1ccc2oc(-c3ccccc3)nc2c1)c1cccnc1	24%	-18%	-3	-10	-9	-3.0
CCCCCCNC(=O)O[C@H]1C[C@@H]2C(=O)N(c3ccccc3)C(=O)[C@@H]2[C@@H]2CN(S(=O)(=O)c3ccc(C)cc3)C[C@]12O	15%	x	5	-6	0	-7.3
COc1cc(NC(=S)NCc2ccco2)cc(OC)c1OC	5%	15%	6	8	3	-5.1
CCc1nc2c(OCC3COc4ccccc4O3)cccn2c1N(C)C(=O)c1ccc(OC)cc1 (stereo not drawn)	x	x	-9	-5	-9	5.9
COc1ccccc1-c1nnc(Sc2nc([N+](=O)[O-])nn2C)o1	20%	-4%	-6	2	-1	1.5
CC(=O)Nc1cccc(C(=O)NC(C)c2ccc(-n3ccnc3)cc2)c1 (stereo not drawn)	11%	8%	-13	-1	13	-4.4
O=C1CC(=O)C(n2cncn2)C(c2cccc(Cl)c2)C1 (stereo not drawn)	5%	6%	-2	-2	5	-3.3
O=C(COC(=O)c1ccccc1O)NC12CC3CC(CC(C3)C1)C2	-3%	-16%	-12	13	10	-1.4
COc1ccc(Cl)cc1NC(=O)CN(C)CC(=O)Nc1ccc2c(c1)OCO2	-31%[inhibitor]	-4%	-10	0	-16	-9.0
Cc1ccc(NC(=O)CSc2ccc(S(=O)(=O)N3CCCC3)cn2)cc1F	-5%	13%	1	x	1	-3.9
CC(C)(C)c1ccc(NC(=O)CSc2nnc(-c3n[nH]c4ccccc34)o2)cc1	12%	-12%	u	-4	-14	3.2
COc1ccc(-c2cc(C(=O)NCc3ccco3)no2)cc1OC	-15%	2%	-7	-8	1	-1.1
CC1(c2ccccc2Cl)NC(=O)N(CC(=O)Nc2ccc(N3CCCCC3)cc2)C1=O (stereo not drawn)	0%[15.4 µM]	8%	1	-12	-24	-3.1

Quoted at random: 2 compounds from above, in no set order.
SMILES	gsp agonist	gsp antag	D2 PAM	CtBP-E1A blk	Six1-Eya2 blk	D2 agonist
CC(=O)Nc1cccc(C(=O)NC(C)c2ccc(-n3ccnc3)cc2)c1 (stereo not drawn)	11%	8%	-13	-1	13	-4.4
O=C(COC(=O)c1ccccc1O)NC12CC3CC(CC(C3)C1)C2	-3%	-16%	-12	13	10	-1.4

Compound activity deposited in PubChem BioAssay by National Center for Advancing Translational Sciences (NCATS).
